Mtb H37Rv = M. tuberculosis H37Rv growth inhibitors, H37Rv strain (AID 1626) | actives 0.95% (n = 220,000) | M. tuberculosis H37Rv growth inhibition; higher % means a stronger effect | one-dose inhibition, % at 10 µM; IC50 in µM for titrated hits;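 active means confirmed in a dose series; inconclusive means inhibition above 80% but not taken into the dose series; inactive means below 80% or under 30% at every dose of the series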;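 further: bacteria incubated seven days before Alamar blue readout; 0% = bacteria only wells and 100% = bacteria with antibiotic wells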
RecA splice inh = inhibitors of M. tuberculosis RecA intein splicing; cell-free RecA intein splicing, fluorescence; P9WHJ3; inhibition, %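 (about 9 µM by stock and volumes)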; actives 0.75% (n = 290,000); in the data active means inhibition above about 30%; inconclusive means no clear call, values can overlap the other calls;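 further: 0% = vehicle wells and 100% = reference inhibitor control wells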
Target sequence (P9WHJ3 whole entry, looked up, canonical isoform): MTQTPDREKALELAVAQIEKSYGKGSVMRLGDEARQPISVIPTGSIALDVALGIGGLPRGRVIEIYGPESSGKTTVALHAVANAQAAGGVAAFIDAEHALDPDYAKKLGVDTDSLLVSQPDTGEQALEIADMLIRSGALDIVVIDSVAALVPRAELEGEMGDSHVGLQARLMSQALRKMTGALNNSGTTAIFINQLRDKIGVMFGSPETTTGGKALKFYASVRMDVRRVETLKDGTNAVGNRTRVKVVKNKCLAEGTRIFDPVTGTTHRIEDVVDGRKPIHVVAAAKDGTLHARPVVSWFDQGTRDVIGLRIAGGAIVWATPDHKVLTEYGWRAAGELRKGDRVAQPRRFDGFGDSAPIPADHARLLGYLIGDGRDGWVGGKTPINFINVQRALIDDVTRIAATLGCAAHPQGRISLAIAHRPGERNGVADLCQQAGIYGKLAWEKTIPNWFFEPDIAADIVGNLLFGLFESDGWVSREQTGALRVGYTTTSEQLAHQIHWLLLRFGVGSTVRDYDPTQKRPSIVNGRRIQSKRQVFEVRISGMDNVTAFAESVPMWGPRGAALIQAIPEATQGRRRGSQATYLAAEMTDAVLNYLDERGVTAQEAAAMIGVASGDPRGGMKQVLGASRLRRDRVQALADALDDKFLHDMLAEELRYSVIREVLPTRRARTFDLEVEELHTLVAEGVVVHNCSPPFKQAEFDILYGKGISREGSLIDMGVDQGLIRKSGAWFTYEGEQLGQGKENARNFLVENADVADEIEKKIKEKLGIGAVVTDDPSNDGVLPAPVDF
Mtb betalactam = beta-lactam sensitization of Mtb H37Rv; M. tuberculosis H37Rv growth with meropenem, percent inhibition; hits of this screen are not shown here; inhibition, % at 25 µM; actives 0.27% (n = 330,000);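 active means about 74% or more and at least 40 points above the plate without the antibiotic, then above 30% in a dose series; inconclusive means first-round hits that could not be retested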;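 further: growth measured after seven days incubation then overnight dye step; 0% = bacteria only wells and 100% = bacteria with antibiotic; twin plates without the antibiotic show which effects depend on it; some results filed as inactive read as strong as hits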
YopH inh = inhibitors of Yersinia enterocolitica YopH tyrosine phosphatase. inhibition, %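 (about 10 µM by stock and volumes)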. AID 898. fluorescence Ex485/Em525. actives 0.16% (n = 140,000);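 active means inhibition of 50% or more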;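 further: controls were vehicle for no effect and minimum signal wells for full effect; inactives centre near -20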
Arbovirus anti = arbovirus infection inhibition; arbovirus infection cell-based antiviral screen; actives 0.37% (n = 200,000); AID 1251; inhibition, % at 10 µM;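 active means inhibition from about 30%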;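 further: bluetongue infection of BSR cells; cell survival read as ATP light after 72 h; 0% = infected wells without compound and 100% = uninfected wells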
Arbovirus anti repeat = also measured in Arbovirus anti; calls as there; inhibition, %; measured here: 10K subset replicate screen; many hits read low in the repeat;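 first of two repeat runs on a subset; 0% = infected and 100% = uninfected wells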
The depositor's hits bear a star; ? = inconclusive; nt = no result given. Not all compounds are listed (hit frequency here may not be typical).

A first look:
SMILES	Mtb H37Rv	RecA splice inh	Mtb betalactam	YopH inh	Arbovirus anti	others
COc1ccc(S(=O)(=O)N2CCCN(CC(=O)Nc3ccc(OC)c(Cl)c3)CC2)cc1	nt	5.4	81.8	1.2	4.5
O=C(COC(=O)Cc1ccccc1[N+](=O)[O-])NCc1ccc(F)cc1	-7.7%	-2.5	-1.3	-23.4	4.4
CC(C)CC(=O)Nc1ccccc1N1CCOCC1	7.5%	1.5	-0.1	-17.3	3.4

The listing (from the top)
SMILES	Mtb H37Rv	RecA splice inh	Mtb betalactam	YopH inh	Arbovirus anti	others
COc1ccc(S(=O)(=O)N2CCCN(CC(=O)Nc3ccc(OC)c(Cl)c3)CC2)cc1	nt	5.4	81.8	1.2	4.5
O=C(COC(=O)Cc1ccccc1[N+](=O)[O-])NCc1ccc(F)cc1	-7.7%	-2.5	-1.3	-23.4	4.4
CC(C)CC(=O)Nc1ccccc1N1CCOCC1	7.5%	1.5	-0.1	-17.3	3.4
COC(=O)[C@@H]1C[C@H]1[C@@H](NC(=O)c1ccccc1)c1ccccc1	-11.1%	-0.3	-11.1	-17.5	2.0
O=S(=O)(c1ccccc1)N1CCCC1c1nc2ccccc2s1 (stereo not given)	-5.9%	-6.2	7.4	-20.8	1.3
Cc1ccc(C(=O)C2CCN(S(=O)(=O)c3c(C)noc3C)CC2)cc1	-1.8%	1.6	-10.8	nt	nt
COC(=O)c1ccc(/C=N/NC(=O)C(=O)N2CCCCCC2)cc1	nt	-1.4	?	nt	nt
CC(C)n1cc(C(=O)c2ccccc2O)cc(C#N)c1=O	-6.4%	-20.4	3.9	nt	-2.2
C/C(=N\OCC(=O)Nn1c(=O)[nH]c2ccccc2c1=O)c1cccs1	-2.2%	-1.5	1.9	nt	4.1
COc1cccc(NC(=O)Nc2nnc(Cc3ccccc3F)s2)c1	nt	0.3	5.1	nt	nt
O=C(Nc1ccc2nc(-c3ccco3)[nH]c2c1)c1ccco1	0.6%	6.8	-1.9	4.9	-10.6
CC(=O)c1ccccc1N(C(=O)c1ccco1)C(C(=O)NC1CCCC1)c1ccc(N2CCOCC2)cc1 (stereo not given)	-4.9%	-3.9	0.8	nt	-2.2
C=CCNC(=O)CN(Cc1ccccc1)S(=O)(=O)c1ccccc1	nt	-2.3	2.9	nt	nt
CCC(c1nnnn1Cc1ccc2c(c1)OCO2)N1CCN(c2ccccc2)CC1 (stereo not given)	2.9%	8.2	-10.5	-28.5	-3.8
COC(=O)C(Cc1ccccc1)NC(=O)CCC(=O)NC(C)CCc1ccccc1 (stereo not given)	nt	-4.7	1.2	nt	nt
O=c1cc(-c2ccccc2)nc2cc(-c3ccco3)[nH]n12	-7.0%	1.5	6.3	nt	nt
O=C(CCN1CCc2ccccc2C1)Nc1ccccc1	-7.2%	2.7	-2.0	-41.7	-0.5	Arbovirus anti repeat=4.7
O=C(CNC(=O)c1cn2ccccc2n1)Nc1ccc(F)c(F)c1	nt	-1.3	-13.7	nt	nt
Cc1sc2ncn(CC(=O)NCC3COc4ccccc4O3)c(=O)c2c1S(=O)(=O)N1CCOCC1 (stereo not given)	1.4%	-1.1	-9.0	nt	-5.2
COc1ccccc1NS(=O)(=O)c1cc(NC(=O)CCC2CCCC2)ccc1N1CCOCC1	3.7%	4.3	4.4	nt	0.5
COc1ccccc1NC(=S)NNC(=S)Nc1ccc(OC(F)F)cc1	-0.2%	-4.1	4.0	-17.2	-1.9
CC(C)CC(=O)N1CCN(C(=O)c2ccc(-c3ccccc3)cc2)CC1	nt	1.4	-10.4	nt	nt
Cc1cccc2sc(N(CCN(C)C)C(=O)/C=C/c3cccs3)nc12	59.0%	-1.6	74.1	-28.6	-1.9
COc1ccc(-n2ncc3c(N4CCN(c5cc(C)ccc5C)CC4)ncnc32)cc1	8.4%	1.4	6.2	-48.9	-7.2	Arbovirus anti repeat=-2.2
Cc1cc(Br)ccc1OCCN1CCCC1	nt	0.5	-20.0	nt	nt
CCC(=O)Nc1ccc(Cl)c(NC(=S)NC(=O)c2cc3ccccc3o2)c1	8.2%	-0.3	-2.8	-5.9	-14.6
COc1ccc(CCNC(=O)CSc2nc(N)cc(=O)[nH]2)cc1OC	-7.9%	-2.3	1.1	nt	0.6
Cc1ccc(SCCNC(=S)Nc2cc(C)cc(C)c2)cc1	8.4%	16.9	-12.4	-7.5	-31.7
CCNS(=O)(=O)c1ccc(NC(=S)NCC2CCCO2)cc1 (stereo not given)	5.0%	0.6	-4.0	nt	3.6
CCOC(=O)C1=C(CC)OC(N)=C(C#N)C1c1ccc(OC)c(C)c1OC (stereo not given)	-3.4%	6.0	1.5	-12.8	-12.2
O=C(Cc1ccc(Cl)cc1)NC(=S)Nc1ccccc1O	nt	1.9	98.9	nt	nt
Cc1c(OCC(=O)N2CCC(C(N)=O)CC2)ccc2c1oc(=O)c1ccccc12	nt	1.9	-1.9	nt	nt
COc1ccccc1NC(=O)CCSCCC(=O)Nc1ccccc1OC	-13.5%	4.7	0.6	-16.7	-1.7
CC(=O)N(C(C)=O)c1c(N2CCCC2)c2ccccc2oc1=O	3.3%	2.8	-3.8	nt	-5.3
FC(F)(F)c1cnc2c(-c3ccc(Cl)cc3Cl)noc2c1	-5.3%	-1.5	-15.8	-29.2	-0.2
CN1CCN(S(=O)(=O)c2ccc(N3CCc4ccccc4C3)nc2)CC1	3.0%	-8.3	-4.8	nt	0.3
Cc1ccn(C(=O)c2cc3ccccc3oc2=O)n1	nt	-1.9	-7.1	-6.1	3.5
O=C(CCS(=O)(=O)c1ccccc1)N(CCCN1CCOCC1)c1nc2ccc(F)cc2s1	nt	-1.4	4.5	nt	nt
CCc1c(C(=O)Nc2ncn(Cc3cccc(C)c3)n2)csc1C	4.7%	2.0	-0.1	-20.8	-5.6
O=C(Nc1ccc(C(=O)N2CCCCC2)cc1)c1cccc([N+](=O)[O-])c1	nt	0.4	-4.0	nt	nt
Cc1ccc(Nc2c([N+](=O)[O-])c(=O)oc3ccccc23)cc1C	60.5%	-5.6	5.9	nt	-14.6
O=C(NCCN1CCOCC1)c1ccccc1N1C(=O)[C@@H]2Cc3c([nH]c4ccccc34)C(c3ccccc3)N2C1=O (stereo not given in full)	nt	-0.3	-0.6	nt	nt
COc1ccccc1C(=O)NCC(=O)OCC(=O)N(CC(C)C)c1c(N)n(Cc2ccccc2)c(=O)[nH]c1=O	nt	7.0	-11.8	nt	nt
Cc1ccccc1C(=O)Nc1ccc(S(=O)(=O)N2CCN(C)CC2)cc1	-7.0%	0.4	-18.0	-22.0	8.4
Cc1cccc(C)c1NC(=O)Cn1nc(C)n2cccc2c1=O	nt	-1.8	8.2	nt	nt
O=C(NC1(C(F)(F)F)C(=O)Nc2c1c(=O)[nH]c(=O)n2Cc1ccccc1)c1ccco1 (stereo not given)	-2.0%	-1.3	-2.9	-30.9	8.8
COc1ccccc1CNC(=O)[C@H](C)NC(=O)C1CCN(C(=O)[C@@H](N)CCSC)CC1	nt	0.8	-3.0	nt	nt
O=C(O)/C(=C\c1ccccc1)c1ccccc1	-6.6%	1.3	12.8	nt	nt

Two consecutive entries from above, quoted:
SMILES	Mtb H37Rv	RecA splice inh	Mtb betalactam	YopH inh	Arbovirus anti	others
COc1ccccc1CNC(=O)[C@H](C)NC(=O)C1CCN(C(=O)[C@@H](N)CCSC)CC1	nt	0.8	-3.0	nt	nt
O=C(O)/C(=C\c1ccccc1)c1ccccc1	-6.6%	1.3	12.8	nt	nt

(list continues)
SMILES	Mtb H37Rv	RecA splice inh	Mtb betalactam	YopH inh	Arbovirus anti	others
Cc1cc(NC(=O)CSc2nc(C(C)C)nc3c2c(=O)n(C)c(=O)n3C)no1	-4.2%	0.1	2.4	-54.6	-4.9
Nc1nc2n(n1)C(c1ccc(Cl)cc1)CC(c1ccc(F)cc1)N2 (stereo not given)	-5.3%	0.0	6.0	-25.7	2.2	Arbovirus anti repeat=3.4
CN(CC(=O)NC1CCCc2ccccc21)C1CCCCC1 (stereo not given)	-5.4%	1.1	-2.3	nt	0.1
CCC(Oc1ccccc1OC)C(=O)N1CC(=O)Nc2ccccc21 (stereo not given)	nt	1.8	-2.5	nt	nt
CC(=O)N/C(=C\c1ccccc1)C(=O)OC(C)C(=O)c1ccccc1 (stereo not given)	nt	-0.4	3.3	nt	nt
COc1ccc(S(=O)(=O)Cc2ccc(C(=O)NCc3cccnc3)o2)cc1	1.3%	-4.4	-1.9	-50.7	-7.0	Arbovirus anti repeat=-1.9
COc1ccc(OC2C(=O)N(c3ccc(F)cc3)C2c2ccc(OC)c(OC)c2)cc1 (stereo not given)	0.1%	0.2	6.8	-28.6	-1.8
CC(C)CC(NC(N)=O)C(=O)NCCc1ccc(Cl)cc1Cl (stereo not given)	2.1%	-1.0	-0.2	nt	0.0
COC(=O)c1cc2occc2n1Cc1nc(-c2ccccc2C)oc1C	nt	1.3	3.5	-30.4	-5.4
Cc1cccc(CN2CCN(CCCc3ccccc3)CC2)c1	-1.9%	-1.9	-2.1	nt	-13.6
C/C(N)=C(/C#N)C(=O)COc1ccc(Cl)cc1Cl	2.8%	0.1	-4.3	nt	5.4
Fc1cccc(CSc2ccc(-c3ccc4c(c3)OCO4)nn2)c1	1.5%	1.7	5.5	-11.0	-31.5
COc1ccc(/C=N/N=C2\SC(CC(=O)O)C(=O)N2c2ccccc2)c(OC)c1 (stereo not given)	3.0%	-0.6	-5.4	-3.1	2.7
COc1cccc(CNC(=O)c2ccc3c(c2)S(=O)(=O)N=C2CCCCCN23)c1	nt	-0.3	-3.8	nt	nt
CC(NC(=O)COC(=O)C1CSC2(C)CCC(=O)N12)C12CC3CC(CC(C3)C1)C2 (stereo not given)	-1.3%	-1.1	-2.7	nt	14.3
COc1ccc(C(=O)NNC(=O)CCc2ccccc2OC)cc1	nt	1.9	-0.1	nt	nt
O=S(=O)(c1cccc(S(=O)(=O)N2CCCC2)c1)N1CCCCC1	nt	0.0	-1.4	nt	nt
C/C(CC(=O)Nc1ccccn1)=N\NC(=O)C(=O)Nc1cccc(C)c1	?	6.1	82.0	-11.5	1.9
C=CCOc1ccccc1CNc1ccc2[nH]c(=O)[nH]c2c1	-4.8%	-1.2	2.2	nt	6.0
O=C1N=C(N2CCOCC2)S/C1=C/c1ccc(-c2ccccc2Cl)o1	6.3%	-13.4	10.1	-10.2	-11.1
CC(C)(C)c1ccc(OCc2cnc(Cl)s2)cc1	16.0%	8.9	12.3	nt	9.4
Oc1ccc(-c2nnc(-c3ccc(O)cc3)nn2)cc1	-3.6%	-1.5	-10.1	-6.8	-4.2
O=C(Nc1nnc(CSCc2ccc(F)cc2)s1)c1cccc([N+](=O)[O-])c1	1.6%	0.8	9.3	-6.1	9.7
O=C(O)C(=O)Cc1c[nH]c2ccccc12	-0.6%	3.5	7.2	16.2	12.2
[O-]/C(=C(\C(=S)Nc1ccc(SC(F)F)cc1)[n+]1cccc(CO)c1)c1ccc(Cl)s1	71.3%	4.0	0.2	nt	27.1
CN(C)C1(CNC(=S)Nc2ccccc2C(F)(F)F)CCCCC1	-1.4%	0.0	0.3	nt	2.1
Cc1nc(Cl)cc(N/N=C/c2ccccc2)n1	nt	0.0	-3.2	nt	nt
FC(F)Oc1ccc(-n2cc(-c3ccccc3)[n+]3c2CCCCC3)cc1	10.6%	-0.7	-7.6	nt	nt
COc1ccc(C(=O)Nc2nnc(CC(=O)N/N=C/c3ccc(O)cc3O)s2)cc1	nt	-21.3	5.0	nt	nt
CCOC(=O)c1ccc(NC(=S)N2CCN(CCN=CC3=C(O)CC(C)(C)CC3=O)CC2)cc1	3.5%	0.6	-1.6	nt	0.2
N#Cc1c2c(c(-c3ccccc3Cl)[nH]c1=S)CCCC2	1.7%	nt	nt	nt	15.4
Cc1ccc(N(CC(=O)NCc2ccccn2)S(=O)(=O)c2ccccc2)cc1C	nt	0.6	2.8	nt	nt
Cc1ccc(NC(=O)c2ccc(Nc3c([N+](=O)[O-])cc([N+](=O)[O-])cc3[N+](=O)[O-])cc2)cc1	?	2.8	99.7	-25.6	-27.7
CC(/C=N/NC(=O)c1nnn(-c2nonc2N)c1CN1CCCCC1)=C\c1ccccc1	nt	0.2	-0.4	nt	nt
CCN(CC)S(=O)(=O)c1ccc(F)c(C(=O)OC2CC(C)OC2=O)c1 (stereo not given)	nt	-2.8	-3.1	nt	nt
O=C(c1ccco1)N1CCN(c2ccc([N+](=O)[O-])c(N3CCOCC3)c2)CC1	-8.3%	-0.9	0.3	nt	-6.0
CN(C)c1ccc(/C=N/NC(=O)c2ccccc2)cc1	-1.9%	0.3	3.9	nt	-8.2
Cc1ccc(CNc2nc3ccccc3n2C)o1	nt	0.0	-4.4	nt	nt
Cc1cccc(NC(=O)CSc2nnc(-c3ccccc3)n2N)c1	-6.7%	-4.1	-19.0	-49.9	-1.3	Arbovirus anti repeat=-1.0
CCC(Sc1nc(N)cc(=O)[nH]1)C(=O)Nc1cc(C)on1 (stereo not given)	-1.0%	0.0	-2.5	nt	5.8
